CapD inh: CapD enzyme inhibition; purified CapD enzyme, fluorescence intensity read-out; hits give low values; some hits fall short of the stated cut; z-score (no concentration beside the values); 140,000 tested, 0.23% active; AID 492967;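 active means z-score under -4 in either of two replicates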;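 further: stock transfer was 100 nL into about 40 µL; score is relative to mean and spread of the plate; one replicate is shown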
AID504770: E. coli YBA685 growth inhibition, screen for V. cholerae RctB inhibitors | E. coli YBA685 rctB-dependent plasmid, OD600 growth, 3 h; hits give low values | z-score (test concentration not listed) | 130,000 tested, 0.27% active | AID 504770;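 active means z-score under -2 on both plates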;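 further: wells of about 30 µL received 100 nL stock; score is relative to mean and SD of the test wells; the first replicate is given; strong numbers were not always called active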
Starred values were filed as active, the others as inactive; i = inactive; . = no result given. Not a hit list. About 0.37% of those tested had a hit in this group.

Results follow in this order: AID504770, CapD inh
COC(=O)c1ccoc1-c1sc2nc(C)cc(C)c2c1N
 : -0.2, .
O=C(OCCOc1ccc(Br)cc1)c1ccc(O)cc1
 : 1.4, .
O=C(CSc1nc2c(sc(=S)n2CC2CCCO2)c(=O)n1-c1ccc(F)cc1)NCc1ccco1 (stereo not given)
 : ., -0.1
Cc1cc(C)n(-c2ccc(C(=O)NCCSCc3ccco3)cc2)n1
 : 0.5, .
COCC(C)NC(=O)CCC(=O)c1ccc(F)cc1 (stereo not given)
 : ., -0.09
COc1ccc(C2CC(=O)Nc3c2c(-c2ccccc2)nn3-c2ccccc2)cc1 (stereo not given)
 : ., -0.3
COc1ccc(CN(C)C(=O)COC(=O)c2c(-c3ccccc3Cl)noc2C)cc1
 : -0.75, .
CN(CC(=O)O)S(=O)(=O)c1ccc2oc3ccccc3c2c1
 : -0.8, 0.35
O=c1cc(CSc2nc(NCC3CCCO3)c3ccccc3n2)nc2ccc(Cl)cn12 (stereo not given)
 : ., 1.1
Cc1ccc(S(=O)(=O)N2CCC(NC(=O)c3ccccc3)CC2)cc1
 : -0.1, .
CC(N)(Cc1ccc2c(c1)OCO2)C(=O)O (stereo not given)
 : -0.55, -0.075
N#CC(C#N)=CNc1ccccc1C(=O)NCCCn1ccnc1
 : 1.1, 0.76
O=c1[nH]cnc2c1c(-c1ccccc1)cn2-c1ccc(F)cc1
 : -0.55, -0.55
CN1C(=O)CC(N2CCN(C/C=C/c3ccccc3)CC2)C1=O (stereo not given)
 : -1, .
CC1=C(C(=O)N(C)C2CCCCC2)C2(CCC(C)CC2)OC1=O (stereo not given)
 : 2.3, -0.46
O=C(COC(=O)C1Cc2ccccc2CN1C(=O)c1ccco1)NC12CC3CC(CC(C3)C1)C2 (stereo not given)
 : -0.8, .
CN(C)c1nc(Nc2ccc(F)cc2)nc(-n2cccn2)n1
 : 0.4, -0.76
Clc1ss/c(=N\c2ccccn2)c1Cl
 : 0.3, -0.01
CN(CC(=O)Nc1ccc(N2CCOCC2)cc1)CC(=O)Nc1sc2c(c1C#N)CCCC2
 : 1.4, .
NC(=S)NC(=O)c1ccc(Cl)cc1
 : -1.5, .
CC(C)CCn1c(=O)c2sccc2n2c(CCCC(=O)O)nnc12
 : -0.75, 1.2
O=C(O)C(CS(=O)(=O)Cc1ccccc1)N1Cc2ccccc2C1=O (stereo not given)
 : 1.1, 0.02
Cc1ccc(NC(=O)NCc2nc3ccccc3n2C)cc1
 : -0.2, .
CCN(c1ccc(OC)cc1)S(=O)(=O)c1cc(-c2onc(C)c2C)ccc1OC
 : 2.9, -0.98
O=C(Cn1ccccc1=O)Nc1ccc(N2CCOCC2)cc1N1CCOCC1
 : 2.2, .
CSc1ccc(S(=O)(=O)N2CCC(C(=O)Nc3ccc4c(c3)OCO4)CC2)cc1
 : 2.1, .
CCOC(=O)c1c(/N=C/c2ccc(N(C)C)cc2)sc(C)c1C
 : 0.05, -0.04
O=C1c2ccccc2-c2nn(C(=O)C3CCN(S(=O)(=O)c4cccs4)CC3)c3cccc1c23
 : -0.75, .
Cc1cccc(C(=O)NN2C(=O)c3cccc4c(Br)c([N+](=O)[O-])cc(c34)C2=O)c1
 : ., -0.52
CSc1nc(NCCO)c(C#N)c(-c2ccc(C)cc2)n1
 : 0.25, -0.38

In the list so far, 5 contain a furan ring, fused or not:
Results follow in this order: AID504770, CapD inh
COC(=O)c1ccoc1-c1sc2nc(C)cc(C)c2c1N
 : -0.2, .
O=C(CSc1nc2c(sc(=S)n2CC2CCCO2)c(=O)n1-c1ccc(F)cc1)NCc1ccco1 (stereo not given)
 : ., -0.1
Cc1cc(C)n(-c2ccc(C(=O)NCCSCc3ccco3)cc2)n1
 : 0.5, .
CN(CC(=O)O)S(=O)(=O)c1ccc2oc3ccccc3c2c1
 : -0.8, 0.35
O=C(COC(=O)C1Cc2ccccc2CN1C(=O)c1ccco1)NC12CC3CC(CC(C3)C1)C2 (stereo not given)
 : -0.8, .

Next section
Results follow in this order: AID504770, CapD inh
O=C(c1c(F)cccc1F)N1CCCC1
 : 0.6, .
CCC1(c2ccccc2)NC(=O)N(Cc2ccccc2)C1=O (stereo not given)
 : 0.05, .
COc1ccc(Nc2ncn[nH]2)cc1
 : -1, -0.4
COc1ccccc1/C=C1/N=C(c2ccc(OC)c(OC)c2)N(c2cccc(C)c2)C1=O
 : ., -2
CN(C)CCCNc1ncnc2c1oc1ccccc12
 : -0.15, .
Cc1cn(CCC#N)nc1C=Nc1ccc(O)cc1
 : 1.1, .
CN(C1CCN(Cc2cc3c(cc2Cl)OCO3)C1)S(=O)(=O)c1ccc(Cl)cc1Cl (stereo not given)
 : ., 0.67
CC1CCCC(NC(=O)C2CCC(Cn3c(=O)[nH]c4ccccc4c3=O)CC2)C1C (stereo not given)
 : -0.35, 81
CC(CCc1ccccc1)NC(C)C(O)c1ccc(O)cc1 (stereo not given)
 : -0.25, -0.23
Cc1ccc2nc(-c3ccc(NC(=O)c4ccc(S(=O)(=O)N5CCc6ccccc65)cc4)cc3)sc2c1
 : ., 3.2
O=C(NC1=NCCS1)c1cccc(S(=O)(=O)N2CCCc3ccccc32)c1
 : -0.6, .
COc1ccc(/C=C2\SC(=O)NC2=O)cc1
 : 1.1, -2.1
COc1ccccc1C(=O)NC(=S)c1c(C)nc2sccn12
 : -1.1, .
COc1ccc(-c2c(C#N)c(N)nc3sc(C(=O)c4ccc(C)cc4)c(N)c23)cc1
 : ., -0.26
CSc1nc(Cl)c2c(n1)N(c1ccccc1)CC2
 : ., 0.045
CNS(=O)(=O)c1cccc(C(=O)OCC(N)=O)c1
 : 0.45, .
CC(C)Oc1nsnc1N1CCOCC1
 : -0.7, 0.08
CCCc1c(C)[nH]c2ccc(C(=O)O)cc2c1=S
 : -0.95, 22
Cc1nnc(SCCCN2C(=O)c3ccccc3C2=O)o1
 : 0.05, .
CSC1=NCCN1C(=O)Cc1cccs1
 : -1.1, -1.2
Cc1ccc(Cn2nnc(-c3ccccc3C)n2)cc1
 : -1, -0.21
CCOC(=O)C1=CC2(SC=C(C(=O)OCC)S2)C2=C(S1)C(C)(C)N(C(=O)Cc1ccccc1)c1ccccc12 (stereo not given)
 : ., 0.7
CCOC(=O)C1=c2s/c(=C/c3ccc(C(C)C)cc3)c(=O)n2C(N)=C(C(=O)OC)C1c1ccc(C(C)C)cc1 (stereo not given)
 : ., 0.25
O=C1CN(C(=O)c2ccc3c(c2)OCO3)C(c2ccccc2)c2cc(F)ccc2N1 (stereo not given)
 : 0.35, 0.55
Cn1cc(/C=N/NC(=O)c2cccnc2)c2ccccc21
 : ., -2.4
CCc1ccc2nc(NC(=O)c3cc(N4CCOCC4)ccn3)sc2c1
 : -0.35, .
CC(=O)Nc1sc2c(c1C(N)=O)CC(C)CC2 (stereo not given)
 : 1.1, i
CCN1CCCC1CNC(=O)C1c2ccccc2C(=O)N(CCOC)C1c1ccc(F)cc1 (stereo not given)
 : ., 0.17
CCc1cc(C(=O)OC)c(NC(=O)/C=C/C(=O)O)s1
 : 0.3, -0.42
Cc1cc(S(=O)(=O)NCCCN2CCOCC2)c(C)cc1Cl
 : ., -0.085
CCC1CCCCN1C(=O)c1cnn(-c2ccc(F)cc2)c1-n1cccc1 (stereo not given)
 : -0.2, -0.98
O=C(NC1CC1)c1ccc2c(c1)N(Cc1ccccc1)C(=O)c1ccccc1S2
 : -0.25, 0.67
CCCc1cc(=O)oc2c(C)c(OC(C)C(=O)O)ccc12 (stereo not given)
 : 0.35, -0.52
N#C/C(=C(\O)c1ccccc1)c1nc2ccccc2c(=O)[nH]1
 : 0.55, -2.2
Cc1nc2cc(-c3ccccc3)nn2c(C)c1CC(=O)NC1CCCC1
 : -0.7, 2.7
COc1ccc(NCc2cc(=O)n3c(-c4ccccc4)csc3n2)cc1
 : 1.8, .
CCCCn1c(=O)c(C(C)=O)c(O)c2ccccc21
 : ., 3.5
CC(C)CC(=O)Nc1cc(C(F)(F)F)cc(C(F)(F)F)c1
 : 0.05, -0.13
COc1ccc(-c2cc(C)nc(SC(C(=O)O)c3ccccc3)n2)cc1 (stereo not given)
 : ., -0.82
Cc1ccc(NC(=O)C(C)Nc2cccc(-c3nnc4n3CCCCC4)c2)cc1 (stereo not given)
 : -0.1, .
CCCn1c(SCC(=O)N2CCN(S(=O)(=O)c3ccc(Cl)cc3)CC2)n[nH]c1=O
 : -0.3, .
CN(CC(=O)Nc1ccc(S(=O)(=O)N2CCCC2)cc1)CC(=O)Nc1ccc(F)c(F)c1F
 : 0.7, .
COc1ccccc1-c1c(C(F)(F)F)oc2c(CN3CC(C)OC(C)C3)c(O)ccc2c1=O (stereo not given)
 : ., 0.33
O=C(Nc1cc2c(s1)CCCC2)c1ccccc1
 : 0.4, .
C=CCN1C(=O)NC(=O)/C(=C/c2ccc(OCc3ccccc3Cl)c(OC)c2)C1=O
 : ., 0.81
CC(C)=CC1C(C(=O)Nc2ccc(S(=O)(=O)N3CCOCC3)cc2)C1(C)C (stereo not given)
 : 0.25, .
COc1ccc(-c2nc3ccc(C(=O)N4CCN(c5ccccc5OC)CC4)cc3nc2-c2ccc(OC)c(OC)c2)cc1OC
 : ., -0.72
COc1cc(SC)ccc1C(=O)NCCCn1ccnc1
 : -0.05, 0.44
O=C(O)CCSc1nnnn1C1CCCCC1
 : -0.65, -0.21
O=C(Nc1nc(-c2ccccn2)cs1)c1sc2ccccc2c1Cl
 : ., -1.1

Following part
Results follow in this order: AID504770, CapD inh
O=C(c1c[nH]c2ccccc12)N1CCOCC1
 : -0.25, -0.49
CCCN1CC=C2C(C#N)(C#N)C(N)=C(C)[C@H](c3ccc(C(=O)OC)cc3)[C@@]2(C)C1
 : 0.95, 38
Cc1ccccc1OCc1nnc(-c2ccccc2)o1
 : -0.95, -0.05
Cc1nc(Nc2ccc(Cl)cc2Cl)c(C#N)c(N(C)C)n1
 : -3.6, 0.27
O=C(NN1C(=O)/C(=C2/C(=O)N(Cc3ccccc3Cl)c3ccccc32)SC1=S)c1cccnc1
 : ., -1.4
Cc1ccc(C)c(N2N=C(C(=O)Nc3ccc(N4CCOCC4)cc3)CCC2=O)c1
 : -0.85, .
O=c1c2ccccc2c2ccccc2c(=O)n1Cc1ccco1
 : -0.85, 0.23
O=C(Nc1cccc(-c2nc3ccccc3s2)c1)C1=COCCO1
 : 1.8, -0.26
Cc1cc(C)c(C)c(S(=O)(=O)N2CCN(C(=O)CCN3C(=O)C4CC=CCC4C3=O)CC2)c1C (stereo not given)
 : 0.8, .
Cc1nn(-c2cccc(C(F)(F)F)c2)c(Cl)c1/C=N/NC(N)=O
 : -1.1, .
O=C(O)Cc1nnc(-c2ccc3c(c2)OCO3)o1
 : 0.2, 2.7
CN1C(=O)CSc2ccc(NC(=O)NCc3cccnc3)cc21
 : 0.8, 0.06
CCc1cc2c(=O)oc(-c3ccc(Br)cc3)nc2s1
 : -0.35, -0.38
CCc1ccccc1NC(=O)C(CC)n1nc(C)n2c(cc3cc(C)ccc32)c1=O (stereo not given)
 : -0.1, 63
c1cncc(CNc2ncnc3sc4c(c23)CCCC4)c1
 : 0.45, 0.17
CN(C)C(=O)C(Sc1nnc(-c2cccs2)n1C1CC1)c1ccccc1 (stereo not given)
 : 0, .
COc1cc(C2C(C#N)=C(N)N(c3ccc(C)cc3)C3=C2C(=O)CCC3)cc(OC)c1OC (stereo not given)
 : ., -0.25
NS(=O)(=O)c1ccc(CNC(=O)c2cccc(Cl)c2)cc1
 : -0.2, .
N#Cc1ccsc1NC(=O)c1cccs1
 : -0.75, -1.2
Cc1cccc(-n2ccnc2SCC(=O)N2CCC(C(N)=O)CC2)c1C
 : 1.6, .
Cc1ccc2nc(C(F)(F)F)cc(N3CCC(C(=O)O)CC3)c2c1
 : -0.3, -0.05
CCS(=O)(=O)Nc1cc(C(=O)OC)ccc1C
 : 1.1, -0.24
O=C(Nc1ccc(N2CCN(c3ccc(C(F)(F)F)cn3)CC2)nc1)c1cccs1
 : -0.6, -0.29
CCOC(=O)CSc1cc(=O)n(CC)c2ccccc12
 : ., -0.095
Cc1cccc(NC(=O)c2cccnc2)c1C
 : -0.55, 0.42
O=C1CS(=O)(=O)C(c2cccnc2)N1Cc1ccc(F)cc1 (stereo not given)
 : 0.45, -0.77
COc1ccc2c(c1OC)C(=O)OC2[C@H]1c2c(cc3c(c2OC)OCO3)CCN1C (stereo not given in full)
 : ., 0.66
CCOC(=O)c1c(C)[nH]c(/C=N/NC(=S)NCc2ccco2)c1Cc1cccc(Cl)c1
 : 0, .
COc1cc(CCNC(=O)CC(CC(=O)C2CC2)c2ccc(Br)cc2)cc(OC)c1 (stereo not given)
 : ., -0.43
CN(Cc1ccccc1)C(=O)CSc1nc2ccccc2c(=O)n1Cc1ccco1
 : -0.45, .

Some of the entries above in a different format.
CCOC(=O)c1c(/N=C/c2ccc(N(C)C)cc2)sc(C)c1C
  AID504770 = 0.05
  CapD inh = -0.04
O=C1c2ccccc2-c2nn(C(=O)C3CCN(S(=O)(=O)c4cccs4)CC3)c3cccc1c23
  AID504770 = -0.75
  CapD inh = .

Next structures.
Results follow in this order: AID504770, CapD inh
NC(=O)c1nn(CC(=O)N2CCN(Cc3nc4ccccc4s3)CC2)c(=O)c2ccccc12
 : 1.5, .
CCOC(=O)C1=C(C)NC(=O)NC1c1ccccc1Cl (stereo not given)
 : ., 1.1
N#Cc1nc2c(C#N)c(N)n(CCc3ccccc3)c2nc1C#N
 : 0.05, 17
COC(=O)CSC1=NS(=O)(=O)c2ccccc2N1
 : -0.35, .
OC1(C#CCN2CCCC[C@H]2c2cccnc2)CCCCC1
 : 2, 0.075
COc1cccc2c1OCC(C#N)=C2
 : -0.25, -0.11
COC(=O)CC1(CC(=O)OC)C(=O)N(C)C(=O)N(C)C1=O
 : -0.9, -0.07
CCc1ccc(NC2=NCCS2)cc1
 : -0.85, 0.33
Cc1ccc(CN2CCC(CNc3ncnc4onc(C)c34)CC2)cc1
 : -1.5, 0.17
Fc1ccc(-n2nnnc2-c2cccc(C(F)(F)F)c2)cc1F
 : -0.6, 0.11

Compound activity as filed in PubChem BioAssay.
